Bioassay records as filed in PubChem BioAssay.
gsp ag: gsp mutant agonism | Potency, µM (titrated, usually from 76.9 µM), without a hit: at the top dose activation (cAMP increase), actives largely listed as activators | 340,000 compounds, 0.13% hits | gsp mutant cells, cAMP HTRF, 30 min; control for the full effect not named in the record; active = well fitted activation curve with a large enough effect; inconclusive = small, poorly fitted or top-dose-only effect, or another doubt; inactive = no such curve, though single readings can be large or run the other way; cell line not stated here;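 note: phosphodiesterase inhibitor Ro 20-1724 added with compounds to block cAMP breakdown; potency is the fitted concentration of half-maximal effect; nearly all actives have a fitted effect of over 60% in size; about a fifth of the inactives were tested at one dose only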
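Cells stably selected in G418 were plated at 2000/well, grown 16-24 hr, then given compounds in DMSO with the PDE inhibitor […] (300 uM solution added) for 30 min at 37C; cAMP was read by HTRF.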
CtBP-E1A inh: blocks the CtBP interaction with E1A; AlphaScreen GST-E1A/His-CtBP binding, 1536-well; active compounds read low; control for the full effect not named in the record; activity change, % (concentration not given with the values); 340,000 compounds, 0.49% hits; in the data active means activity change below about -65%; inconclusive means about -30% to -65%; inactive means above about -30%; note: % is set by controls: 0 for no effect and ±100 for the full control effect
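In 5 uL wells, 23 nL compound meets equimolar GST-E1A and His-CtBP (5X stock 125 nM each) for 2 h, 37 °C. Beads (5X, 50 ug/mL) then 1 h, 37 °C, dark.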
Sfp inh: blocks B. subtilis Sfp PPTase activity. Biochemical Sfp PPTase activity, qHTS. Potency, µM, inactives show max response, negative = inhibition, most hits filed as inhibitors. 310,000 compounds, 3.5% hits. AID 1490; active = well fitted inhibition curve with a large enough effect; inconclusive = small, poorly fitted or top-dose-only effect, or another doubt; inactive = no such curve, though single readings can be large or run the other way;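 note: the enzyme is Sfp with the accession as filed and its product quenches rhodamine fluorescence; potency is the fitted concentration of half-maximal effect; 0% = enzyme reaction without inhibitor and -100% = no enzyme wells; top concentration of the series not given in the record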
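Buffer: 50 mM Hepes-Na pH 7.6, 10 mM MgCl2, 0.01% Nonidet P-40, 0.01% BSA. Enzyme 15 nM, pre-exposed to compound 15 min; substrates then added and fluorescence change tracked over 30 min.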
gsp antag: antagonists of gsp mutant (McCune-Albright syndrome). gsp-mutant cells, cAMP HTRF, 30 min; control for the full effect not named in the record. 340,000 compounds, 0.4% hits. Potency, µM (series often up to 76.9 µM), inactives show top-dose activity change, negative = inhibition, most hits filed as inhibitors. AID 624288; active = falling curve of any shape with a large fitted effect; inconclusive = falling curve, mostly with a smaller effect; inactive = flat or rising curve; cell line not stated here;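 note: intracellular cAMP measured with PDE inhibitor Ro 20-1724 present during compound exposure; potency is the fitted concentration of half-maximal effect; % is set by controls: 0 for no effect and ±100 for the full control effect; nearly all actives have a fitted effect of over 65% in size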
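G418-selected cells were plated in DMEM/10% FBS for 16-24 h at 37C, then treated with compounds plus the PDE inhibitor […] (300 uM solution added) for 30 min at 37C. Intracellular cAMP was measured by HTRF after 30 min lysis at room temperature.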
ClpP mod: qHTS Assay for Activators of ClpP; ATP-dependent Clp protease proteolytic subunit (Bacillus subtilis (strain 168)), P80244; purified B. subtilis ClpP, FRET peptide cleavage, 20 min; Potency, µM (titrated, usually from 57.5 µM), inactives show at the highest dose activity change, negative = active; 340,000 compounds, 1.9% hits; AID 651965, 2013; active = well fitted falling curve with a large enough effect; inconclusive = small, poorly fitted or top-dose-only effect; inactive = no such curve, though single readings can be large or run the other way; note: potency is the fitted concentration of half-maximal effect; the source files actives as falling curves though it sought activators and does not explain the sign; nearly all actives have a fitted effect of over 65% in size; many hits overshoot -100%
Target sequence (P80244 whole entry, looked up): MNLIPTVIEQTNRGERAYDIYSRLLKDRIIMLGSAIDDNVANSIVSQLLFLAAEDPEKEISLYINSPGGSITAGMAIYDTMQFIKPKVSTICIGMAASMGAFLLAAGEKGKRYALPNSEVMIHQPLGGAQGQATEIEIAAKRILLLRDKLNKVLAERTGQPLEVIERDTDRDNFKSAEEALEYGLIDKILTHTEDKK
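ClpP 10 microg/mL final, pH 8 Tris/KCl buffer with BSA, glycerol, Tween-20; compound pinned in; FRET-FV substrate; RT 20 min; Ex320/Em430; ΔFRET vs ADEP 5.8 microM, DMSO, no enzyme.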
TRPV1 potentiator: human TRPV1 potentiation; AID 540277; 320,000 compounds, 0.02% hits; TRPV1-expressing cells, Fluo-8 calcium influx, capsaicin EC20 potentiation; host cell line not named in the record; control for the full effect not named in the record; potentiation, % at 8.33 µM; Q8NER1; active means potentiation above 80%; inconclusive means 30% to 80%; inactive means below 30%; note: 0% is about no effect
Target sequence (Q8NER1 whole entry, looked up): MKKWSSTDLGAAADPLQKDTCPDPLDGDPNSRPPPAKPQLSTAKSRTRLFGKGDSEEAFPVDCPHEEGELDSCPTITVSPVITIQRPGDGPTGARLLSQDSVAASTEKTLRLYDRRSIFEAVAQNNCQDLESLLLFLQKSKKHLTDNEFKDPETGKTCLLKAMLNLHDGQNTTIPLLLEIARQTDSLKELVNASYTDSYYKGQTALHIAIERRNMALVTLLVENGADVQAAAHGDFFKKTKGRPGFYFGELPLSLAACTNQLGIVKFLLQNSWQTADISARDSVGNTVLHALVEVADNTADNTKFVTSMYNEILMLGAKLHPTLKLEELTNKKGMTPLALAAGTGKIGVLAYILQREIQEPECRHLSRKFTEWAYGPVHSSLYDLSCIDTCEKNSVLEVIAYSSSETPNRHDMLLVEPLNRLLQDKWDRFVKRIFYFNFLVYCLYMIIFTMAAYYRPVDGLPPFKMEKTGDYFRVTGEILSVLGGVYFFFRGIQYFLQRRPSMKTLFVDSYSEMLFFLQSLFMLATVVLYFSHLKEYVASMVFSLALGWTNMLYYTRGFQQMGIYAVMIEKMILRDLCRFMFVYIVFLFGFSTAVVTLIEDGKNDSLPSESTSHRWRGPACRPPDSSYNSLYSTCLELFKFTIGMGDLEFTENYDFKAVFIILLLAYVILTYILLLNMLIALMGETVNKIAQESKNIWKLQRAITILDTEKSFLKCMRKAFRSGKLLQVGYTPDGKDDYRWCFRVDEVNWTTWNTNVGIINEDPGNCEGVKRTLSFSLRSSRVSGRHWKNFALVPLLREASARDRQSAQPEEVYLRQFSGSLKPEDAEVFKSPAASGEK
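Cells expressing TRPV1 were dye-loaded with Fluo-8 and read kinetically: 10 s baseline, 3 min after compound (agonist portion), then 2 min after EC20 capsaicin (allosteric enhancer portion). Calcium-bound dye fluorescence at 480/520 nm.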
Menin MLL FP FL: inhibitors of human menin-MLL interaction, wild-type MLL peptide | FP activity change, % at 61.4 µM | 290,000 tested, under 10 active | Fluorescence polarization, fluorescein-MLL peptide displacement from menin; inconclusive = falling polarisation curve, or a change in total fluorescence; inactive = total fluorescence flat and polarisation flat or rising; no compound was filed as active; the % refers to the polarisation; negative = inhibition;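 note: % of control where 0% means no effect; inhibitors lower the polarisation; unlabelled MLL peptide was the positive control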
Starred values were filed as active, the others as inactive; u = inconclusive; x = no result given; [ ] = another dose, or the depositor's remark.

SMILES | gsp ag | CtBP-E1A inh | Sfp inh | gsp antag | ClpP mod | TRPV1 potentiator | Menin MLL FP FL
O=S(=O)(Nc1ncnc2sc3c(c12)CCC3)c1cc(F)ccc1F | -2.6% | x | 7.8% | -14.4% | -10.0% | 3.6 | -1.4
CCOC(=O)C1=CNS(=O)(=O)NC1c1cccc(O)c1 (stereo not drawn) | x | 5.1 | x | 13.3% | -17.0% | x | x
CNC(=O)c1c(C)nc(SCC(=O)NCc2ccc(OC)cc2)c(C#N)c1-c1ccco1 | 14.2% | 0.3 | 9.1% | 4.3% | -8.6% | -6.7 | 1.3
O=S(=O)(c1ccc2c(c1)C(=NO)c1cc(S(=O)(=O)N3CCCCC3)ccc1-2)N1CCCCC1 | 0.0% | 5.1 | -14.3% | -18.8% | 28.2µM* | -6.6 | 10.3
COc1cccc(NC(=O)c2cc(-c3ccco3)nc3ccccc23)c1 | 8.2% | -16.0 | x | 3.3% | x | x | x
CCN(CC)c1ccc(C2C(C(C)=O)C(=O)CC(C)(O)C2C(C)=O)cc1 (stereo not drawn) | 16.3%[15.4 µM] | 3.0 | x | -11.5% | -5.3% | x | x
CC(=O)c1ccc(NC(=O)NNS(=O)(=O)c2ccc([N+](=O)[O-])cc2)cc1 | -3.3% | -10.8 | 13.0% | 5.0% | -3.3% | -26.1 | x
COc1ccc(NC(=S)NCCCN2CCN(C3CCCCC3)CC2)cc1 | 7.4% | -3.5 | 0.7% | 9.1% | -1.3% | 9.9 | 1.2
O=C(Nc1c2c(nn1-c1ccccc1)CS(=O)C2)c1ccco1 (stereo not drawn) | 6.6%[15.4 µM] | 1.7 | 9.9% | 11.8% | -3.2% | 13.6 | x
Cc1ccc(C(=O)O/N=C/c2ccc3c(c2)OCO3)cc1 | 1.5% | 8.9 | 4.9% | 11.9% | u | -8.4 | -0.5
CC1CCCCC1NC(=O)COC(=O)c1ccc([N+](=O)[O-])o1 (stereo not drawn) | 9.9%[15.4 µM] | -7.9 | x | 2.2% | x | -32.3 | x
CCS(=O)(=O)N1Cc2ccccc2CC1C(=O)Nc1ccc(OC)cc1OC (stereo not drawn) | -10.4%[15.4 µM] | 8.2 | 10.3% | 6.2% | -0.3% | 2.9 | -0.8
CCN(CC(=O)NC1CCCC1)S(=O)(=O)c1ccc(F)cc1 | 0.0% | 5.1 | 11.0% | -13.5% | 1.0% | 3.1 | 3.5
O=C(COc1ccc(F)cc1)c1ccc2c(c1)CCCC2 | 3.5% | 49.0 | x | -1.3% | -2.4% | x | x
COc1ccc([N+](=O)[O-])cc1/C=N/NC(=O)/C(=C\c1cccs1)NC(=O)c1ccccc1 | -31.6%[inhibitor] | -29.6 | 4.4% | -19.2% | 0.0% | -11.1 | 9.6
Cc1cc(-c2n[nH]c(=S)n2-c2ccccc2C)cs1 | u | 6.4 | u | -19.5% | -22.4% | -3.1 | 1.6
Cc1cccc(N(C)S(=O)(=O)c2cc3c(cc2C)n(C)c(=O)c(=O)n3C)c1 | 5.6% | 0.0 | 0.8% | -14.0% | -2.5% | -18.2 | 3.8
COCCNCC(=O)NCC12CC3CC(CC(C3)C1)C2 | 1.5% | -0.1 | 11.9% | 8.9% | 0.6% | -1.7 | -1.9
O=C(CN1C(=O)NC(Cc2c[nH]c3ccccc23)C1=O)Nc1cccc(S(=O)(=O)N2CCCCCC2)c1 (stereo not drawn) | 0.1% | -4.5 | 14.8% | -7.7% | -1.3% | 0.5 | 8.7
Cc1c(C(=O)Nc2ccc(Nc3ccccc3)cc2)cccc1[N+](=O)[O-] | -3.6% | x | 2.0% | -15.8% | -9.3% | -4.9 | -4.7
FCCCOc1ccc(/C=N/OCc2ccc(Cl)cc2)cc1 | -29.4% | 100.2 | 16.6% | 7.5% | 1.8% | -7.3 | -4.8
O=C(NCc1ccc2c(c1)OCO2)C1CCCN(S(=O)(=O)c2cccc3cccnc23)C1 (stereo not drawn) | -28.0% | -25.4 | 7.1% | -2.8% | -5.0% | -38.2 | -2.3
CCOc1ccc(-n2c(-c3ccco3)n[nH]c2=S)cc1 | 7.5% | 3.9 | 50.1µM* | 4.3%[15.4 µM] | u | -1.5 | 0.5
Cc1ccc(S(=O)(=O)CCC(=O)Nc2ccccc2C)cc1 | u | 12.5 | 15.8% | -2.4% | x | 5.9 | 1.2
COc1ccc(C(CNS(=O)(=O)c2ccccc2)N2CCN(C)CC2)cc1 (stereo not drawn) | 4.7% | 12.0 | x | 10.1% | 0.9% | 18.3 | x

2 compounds drawn at random from the list so far:
SMILES | gsp ag | CtBP-E1A inh | Sfp inh | gsp antag | ClpP mod | TRPV1 potentiator | Menin MLL FP FL
COc1ccc([N+](=O)[O-])cc1/C=N/NC(=O)/C(=C\c1cccs1)NC(=O)c1ccccc1 | -31.6%[inhibitor] | -29.6 | 4.4% | -19.2% | 0.0% | -11.1 | 9.6
FCCCOc1ccc(/C=N/OCc2ccc(Cl)cc2)cc1 | -29.4% | 100.2 | 16.6% | 7.5% | 1.8% | -7.3 | -4.8

Following part.
SMILES | gsp ag | CtBP-E1A inh | Sfp inh | gsp antag | ClpP mod | TRPV1 potentiator | Menin MLL FP FL
CCOc1ccccc1NC(=O)CCc1nnc2ccc(N3CCC(C)CC3)nn12 | -49.1% | 8.8 | -0.1% | 3.0% | -0.2% | u | -0.1
O=C(Nc1nnc(C2=COCCO2)o1)c1ccc(Cc2ccccc2)cc1 | 3.5%[15.4 µM] | u | 1.0% | 4.4% | 30.7% | -0.4 | 1.2
CCn1c(CC(=O)Nc2ccccc2)nnc1SCc1nc2ccccc2c(=O)[nH]1 | u | -3.3 | 13.6% | 10.0% | 0.6% | 9.9 | 2.4
COc1ccc(OC)c(S(=O)(=O)Nc2cccc(C(C)=O)c2)c1 | -1.4% | -3.5 | 2.9% | -22.8% | -0.1% | 0.3 | -1.6
Cc1nn(C)c(C)c1S(=O)(=O)N(CC(=O)N1CCc2ccccc2C1)c1ccc(C(C)C)cc1 | -93.6%[inhibitor] | 0.8 | -3.6% | u | 2.8% | 2.9 | 4.3
COc1ccc(CC(=O)Nc2cccnc2)cc1 | -33.1%[15.4 µM] | -3.4 | 6.3% | 5.0% | -1.5% | 7.9 | -1.1
CCOC(=O)/C=c1\s/c(=C\c2ccccc2C)c(=O)n1CC(=O)NCc1ccc2c(c1)OCO2 | -12.6% | -4.3 | u | 9.5% | 0.7% | 6.5 | 19.1
O=C(N/N=C/c1ccc(F)cc1)c1ccc(Br)cc1 | 39.8µM* | 0.6 | 5.5% | 3.6% | 2.0% | -3.0 | -3.9
O=C(N/C=N/OCc1ccc(Cl)cc1Cl)NOCc1ncc(C(F)(F)F)cc1Cl | -31.4%[inhibitor] | 4.2 | 4.3% | 5.1% | -1.8% | -3.2 | -0.5
OC(COc1ccc(OCC(O)CN2CCCCCC2)cc1)CN1CCCCCC1 (stereo not drawn) | -25.9% | 3.3 | 9.9% | 0.7% | -3.3% | -6.4 | 1.2
C=CCNC(=O)c1ccccc1NS(=O)(=O)c1ccccc1 | -16.1% | -1.2 | 2.5% | -9.9% | -19.8% | 1.6 | 0.8
O=C(Nc1ncc(S(=O)(=O)c2ccc([N+](=O)[O-])cc2)s1)c1ccc2ccccc2c1 | 2.5% | -0.7 | u | -7.5% | -3.3% | 20.0 | 1.5
O=C(NC1=NCCS1)c1cccc(S(=O)(=O)N2CCCCC2)c1 | x | x | -2.7% | x | x | -11.6 | 3.0
Cc1cccc(N(CC(=O)Nc2ccc(F)cc2)S(C)(=O)=O)c1 | -8.1% | -8.9 | 9.2% | -0.4% | 0.5% | 15.1 | 0.1
C=CCSc1nc(Oc2ccccc2)c2sccc2n1 | 1.2% | 50.5 | -19.8% | -4.2% | -2.1% | 14.1 | 3.7
Cc1ccc(C(CC(=O)NCc2ccco2)c2ccc(OC(C)C)cc2)cc1 (stereo not drawn) | 2.8% | 17.7 | -22.8% | u | 0.3% | -6.5 | 5.0
COCCn1c(=O)[nH]c2cc(C(=O)N3CCN(c4ccccc4F)CC3)ccc2c1=O | 15.2%[15.4 µM] | 16.1 | 24.7% | -3.6% | -5.2% | 24.3 | 0.5
Cc1ccnc(NC(=O)c2cccc([N+](=O)[O-])c2C)c1 | 1.1% | 6.5 | 11.7% | 6.3% | x | 1.2 | 2.6
CCOc1ccc2[nH]c(=O)c(CN(Cc3ccc(C)cc3)C(=O)N3CCCC3)cc2c1 | 7.1% | 1.6 | 0.5% | -4.6% | 31.6µM* | 24.0 | 0.8
CCCCCCSc1ccc([C@H]2N[C@@](CC(C)C)(C(=O)OC)[C@H]3C(=O)N(C)C(=O)[C@@H]23)cc1 | -0.9% | -2.8 | x | -11.0% | -19.9% | 13.5 | x
Cc1ccccc1Cn1ccc(-c2ccc(Cl)cc2)c(C#N)c1=O | -20.9% | 6.4 | 9.6% | 10.6% | u | 4.6 | 1.7
Cc1nn(CC2CC2)c(=O)n1-c1ccccc1F | -5.0% | 0.0 | 10.6% | -6.6% | x | -6.0 | -0.5
O=C(NCc1cccnc1)c1cccnc1Sc1ccc(Cl)cc1 | -22.3% | -1.5 | 8.9% | -8.8% | 0.5% | 4.9 | -0.6
COc1cc(C(=O)NCc2nnc(SCC(=O)N3CCCCC3)o2)cc(OC)c1OC | -35.1%[inhibitor] | 1.6 | -0.2% | 0.7% | -1.9% | 0.6 | -1.0
CC(C)(C)C1CCc2c(sc(NC(=O)c3ccncc3)c2C(N)=O)C1 (stereo not drawn) | -37.3% | -0.8 | -15.5% | -5.9% | 1.7% | -5.0 | 4.9
CCOC(=O)C1=C(N2CCCCC2)c2cc3c(n2C1=O)CCCC3 | 0.2% | -14.5 | -2.4% | -15.6% | -1.6% | -15.0 | 0.1
CCOC(=O)c1sc(-c2ccc(C(F)(F)F)cc2)nc1O | u | 7.9 | -19.4% | 5.5% | x | -4.4 | u
COCCCNC(=O)CCc1ccc(S(=O)(=O)Nc2ccc(C)cc2)cc1 | 8.0% | 4.2 | 7.7% | 0.5% | -1.2% | -0.3 | 3.2
COc1ccc(N2CCN(C(=O)c3ccc4c(c3)NC(=O)C(CSCc3ccccc3F)N4)CC2)cc1 (stereo not drawn) | -11.5% | -4.8 | x | x | -11.4% | x | x
CCOC(=O)c1nn(-c2ccc(Cl)cc2)c(=O)c(C#N)c1C | 10.9% | -13.4 | -0.5% | -4.8% | -8.0% | 1.6 | -0.9
